gsp ag = gsp mutant agonism. gsp mutant cells, cAMP HTRF, 30 min; control for the full effect not named in the record. Potency, µM (highest dose often 76.9 µM), inactives show at the top dose activation (cAMP increase), actives largely listed as activators. actives 0.13% (n = 340,000); active = well fitted activation curve with a large enough effect; inconclusive = small, poorly fitted or top-dose-only effect, or another doubt; inactive = no such curve, though single readings can be large or run the other way; cell line not stated here;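 further: phosphodiesterase inhibitor Ro 20-1724 added with compounds to block cAMP breakdown; potency means the concentration at half of the fitted maximal effect; nearly all actives have a fitted effect of over 60% in size; about a fifth of the inactives were tested at one dose only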
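Cells in DMEM/10% FBS with G418 were pretreated with compounds in DMSO plus […] (300 uM stock) for 30 min at 37C. cAMP was measured by HTRF (cAMP-d2 plus anti-cAMP antibody-K) after 30 min at room temperature.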
gsp antag = antagonists of gsp mutant (McCune-Albright syndrome). AID 624288. actives 0.4% (n = 340,000). Potency, µM (highest dose often 76.9 µM), without a hit: at the highest dose activity change, negative = inhibition, hits mostly inhibitors. gsp-mutant cells, cAMP HTRF, 30 min; control for the full effect not named in the record; active = falling curve of any shape with a large fitted effect; inconclusive = falling curve, mostly with a smaller effect; inactive = flat or rising curve; cell line not stated here;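 further: intracellular cAMP measured with PDE inhibitor Ro 20-1724 present during compound exposure; potency means the concentration at half of the fitted maximal effect; on the % scale 0 is the no-effect control and ±100 the full control effect; nearly all actives have a fitted effect of over 65% in size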
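Cells, 2000/well, grown 16–24 h in DMEM 10% FBS with 0.5 mg/ml G418, then compounds plus […] (300 uM addition stock), 30 min at 37C. cAMP read by HTRF (cAMP-d2 and anti-cAMP antibody-K in lysis buffer) after 30 min RT.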
Menin MLL FP FL = inhibitors of human menin-MLL interaction, wild-type MLL peptide. Fluorescence polarization, fluorescein-MLL peptide displacement from menin. FP activity change, % at 61.4 µM. 290,000 tested, under 10 active. AID 1766; inconclusive = falling polarisation curve, or a change in total fluorescence; inactive = total fluorescence flat and polarisation flat or rising; no compound was filed as active; the % refers to the polarisation; negative = inhibition;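 further: % of control where 0% means no effect; inhibitors lower the polarisation; unlabelled MLL peptide was the positive control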
TRPML1 ag = activates the human TRPML1 channel; Q9GZU1; TRPML1-expressing cells, Ca2+ dye fluorescence, FDSS; host cell line not named in the record; reference of the full effect not given here; activation, % (concentration not given with the values); actives 0.12% (n = 410,000); AID 624414; in the data active = activation above about 50%; inconclusive = about 30% to 50%; inactive = below about 30%; further: 0% is about no effect; the text of the record puts the active cut at 80%
Target sequence (Q9GZU1 whole entry, looked up): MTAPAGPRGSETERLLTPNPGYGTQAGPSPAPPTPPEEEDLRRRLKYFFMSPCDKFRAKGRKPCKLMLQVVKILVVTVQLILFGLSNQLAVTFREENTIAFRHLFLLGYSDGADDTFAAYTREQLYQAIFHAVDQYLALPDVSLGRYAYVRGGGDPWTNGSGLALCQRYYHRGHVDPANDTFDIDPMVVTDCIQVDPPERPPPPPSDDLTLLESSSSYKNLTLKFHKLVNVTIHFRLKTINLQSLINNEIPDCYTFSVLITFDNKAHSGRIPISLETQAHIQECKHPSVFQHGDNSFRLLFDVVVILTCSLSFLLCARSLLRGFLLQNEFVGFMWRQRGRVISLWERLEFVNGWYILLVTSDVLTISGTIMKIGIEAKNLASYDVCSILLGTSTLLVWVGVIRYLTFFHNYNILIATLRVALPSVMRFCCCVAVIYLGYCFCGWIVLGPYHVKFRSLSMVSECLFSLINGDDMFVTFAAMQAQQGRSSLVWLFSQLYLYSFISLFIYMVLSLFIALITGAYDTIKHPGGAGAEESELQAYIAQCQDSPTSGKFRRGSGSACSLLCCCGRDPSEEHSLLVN
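TRPML1-DL cells, Tet-induced overnight (~16 h, 37 degrees C), loaded 45-90 min at room temperature with Ca8 no-wash calcium dye plus quencher. FDSS fluorescence: 10 s baseline, compound pin-transfer, 110 s agonist read, then EC80 54-4 (4uM final) and 110 s antagonist read.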
ClpP mod = qHTS Assay for Activators of ClpP; purified B. subtilis ClpP, FRET peptide cleavage, 20 min; actives 1.9% (n = 340,000); Potency, µM (series often up to 57.5 µM), without a hit: at the top dose activity change, negative = active; AID 651965, 2013; ATP-dependent Clp protease proteolytic subunit (Bacillus subtilis (strain 168)), P80244; active = well fitted falling curve with a large enough effect; inconclusive = small, poorly fitted or top-dose-only effect; inactive = no such curve, though single readings can be large or run the other way; further: potency means the concentration at half of the fitted maximal effect; the source files actives as falling curves though it sought activators and does not explain the sign; nearly all actives have a fitted effect of over 65% in size; many hits overshoot -100%
Target sequence (P80244 whole entry, looked up): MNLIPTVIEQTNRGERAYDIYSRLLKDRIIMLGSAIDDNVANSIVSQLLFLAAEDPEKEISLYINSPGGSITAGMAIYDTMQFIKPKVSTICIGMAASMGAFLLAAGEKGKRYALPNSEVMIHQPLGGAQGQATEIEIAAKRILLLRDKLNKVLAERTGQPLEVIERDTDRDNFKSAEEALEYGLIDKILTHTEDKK
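ClpP 10 microg/mL final, pH 8 Tris/KCl buffer with BSA, glycerol, Tween-20; compound pinned in; FRET-FV substrate; RT 20 min; Ex320/Em430; ΔFRET vs ADEP 5.8 microM, DMSO, no enzyme.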
TRPML1 blocker = inhibitors of human TRPML1 channel; Q9GZU1; TRPML1-inducible cells, Ca2+ dye fluorescence, FDSS; stronger effect = lower value; inhibition of EC80 agonist-evoked calcium signal; activity change, negative = inhibition, % (test concentration not listed); actives 0.02% (n = 390,000); in the data active means activity change below about -50%; inconclusive means about -30% to -50%; inactive means above about -30%;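 further: stimulus is agonist 54-4 at its EC80 concentration; on the % scale 0 is the no-effect control and ±100 the full control effect; compound concentration not given in the record; the text of the record puts the active cut at -80%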
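Calcium fluorescence in TRPML1-DL cells induced overnight with Tet: a 110 s read after compound pin addition, then a 110 s antagonist read after challenge with 54-4 at 4 uM final (EC80).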
Numbers without * were called inactive; ? = inconclusive; . = not tested or not shown; & = joins results of further samples; [ ] = remark or other dose. No enrichment for hits (roughly 2.1% active in at least one column).

SMILES | gsp ag | gsp antag | Menin MLL FP FL | TRPML1 ag | ClpP mod | TRPML1 blocker
CCCCC[C@H](O)/C=C/[C@@H]1[C@@H](C/C=C\CCCC(=O)O)[C@@H](O)C[C@H]1O | . | 3.8% | -1.8&0.7&-2.6 | -0.1 | -0.2% | 3.4
CC(C)NC(=O)COc1ncnc2sccc12 | -29.2% | 0.7% | -0.6 | -0.5 | -4.1% | -9.3
OC1(c2ccc(Br)cc2)CCNCC1 | 15.8% | 23.8% | -0.7 | 1.4 | -0.3% | 3.3
CC(CCc1ccccc1)NC(=O)Cc1cccs1 (stereo not drawn) | -3.6%[15.4 µM] | 13.7% | 9.9 | -1.4 | -0.4% | -15.9
COc1ccc(NC(=O)CN(C)S(=O)(=O)c2ccc(C)cc2)c([N+](=O)[O-])c1 | -15.5% | 4.1% | 2.7 | 0.5 | -4.0% | -17.6
CCc1ccccc1NC(=O)NC1CC2CCC(C1)N2Cc1ccco1 (stereo not drawn) | -37.5% | 11.2% | -3.0 | -0.2 | 0.5% | 5.5
C=CCn1c(SCC(=O)N2CCCC2)nc2cc(C(=O)NCC3CCCO3)ccc2c1=O (stereo not drawn) | 0.9% | 6.0% | -1.6 | -0.5 | ? | 17.4
O=C1CCC(/C=C/c2ccccc2)=NN1Cc1ccccc1 | -3.4%[15.4 µM] | 2.9% | -0.4 | -0.2 | . | 11.8
Cc1cc(C)c2c(NC(=O)c3ccccc3Cl)c(C(=O)Nc3ccc(C)c(C)c3)sc2n1 | . | . | . | 2.2 | 9.9% | ?
OCC[C@H]1C[C@@H](O)[C@H](O)[C@]2(CCCc3ccccc3O2)O1 | 1.5% | 2.3% | . | -0.4 | 2.2% | 0.4
Cc1cc2nc(-c3cccc(Br)c3)c(Cc3ccccc3)n2c(C)c1Br | . | . | . | -0.5 | 0.4% | -8.2
CCCCCn1cnnc1SCC(=O)c1c(N)n(C2CC2)c(=O)[nH]c1=O | 2.1% | 11.1% | . | -0.6 | -3.3% | 6.4
Nc1nc(-c2c[nH]c3ccccc23)cs1 | -1.1% | 4.3% | 8.7 | 1.8 | -10.6% | 5.2
Cc1cccc(-c2ccc3c(c2)C2CC3CCN2Cc2ccc3c(c2)OCO3)c1 (stereo not drawn) | . | 9.3% | . | 1.5 | -4.6% | 7.2
COc1ccc(C(=O)O)cc1S(=O)(=O)Nc1ccc(N2CCCCC2)cc1 | -48.2%[inhibitor] | 2.2% | . | -0.3 | . | -12.3
Clc1nccc(N2CCN(c3ccccc3Cl)CC2)n1 | 6.9%[15.4 µM] | -1.8% | . | -0.4 | . | -12.9
CN(C)CCOc1ccc(C(C)(C)c2ccccc2)cc1 | -1.0%[15.4 µM] | 14.3% | 3.9 | 0.6 | -1.0% | -1.9
COc1ccc(N2CCN(C(=O)CSc3nc(C)cs3)CC2)cc1 | 3.0%[15.4 µM] | -3.0% | . | 0.6 | . | -4.7
COc1ccc(Cl)cc1S(=O)(=O)NC(C)c1cnn(-c2ccccn2)c1C (stereo not drawn) | -31.9%[inhibitor] | . | . | -0.2 | -6.1% | 5.2
CNC[C@@H]1Oc2ccc(NS(=O)(=O)c3ccc(OC)cc3)cc2CC(=O)N([C@H](C)CO)C[C@@H]1C | 13.5% | 9.3% | . | 0.5 | -0.6% | 6.3
Cc1nnc(SCCOc2ccccc2)s1 | -13.9% | 4.3% | -2.4 | 0.6 | . | -11.6
COc1nc(N)c(S(=O)(=O)c2ccccc2)cc1C#N | -1.8% | -15.1% | 7.7 | -0.3 | -19.6% | 7.5
Cc1cc(C)c(CSc2nnc(C)n3c2cc2occc23)c(C)c1 | . | . | . | 1.0 | -4.8% | 31.2
CCc1cc(=O)oc2cc(OC(C)C(=O)NCC3CCC(C(=O)O)CC3)c(Cl)cc12 (stereo not drawn) | . | -11.1% | -0.4 | . | 4.7% | .
Cc1ccccc1CSc1ccc2nnc(-c3ccccn3)n2n1 | -3.9%[15.4 µM] | -1.6% | 4.7 | 0.0 | . | 17.6
Cc1cc(C)cc(NC(=O)CCc2c(C)nn(-c3ccc(N4CCOCC4)nn3)c2C)c1 | ? | -9.5% | -4.7 | -1.4 | -3.0% | 15.6
CN(C(=O)CSc1ncnc2sc(-c3ccccc3)cc12)C1CCS(=O)(=O)C1 (stereo not drawn) | ? | ? | -0.2 | 4.0 | -23.5% | -17.2
COc1ccc(S(=O)(=O)Nc2cccc3c2O[C@H](CN(C)S(=O)(=O)c2cccs2)[C@@H](C)CN([C@H](C)CO)C3=O)cc1 | . | -11.5% | . | -0.1 | -1.1% | 6.5
Cc1ccc2cc(C#N)c(NCCCNC(=O)C3CCCO3)nc2c1 (stereo not drawn) | ? | -5.3% | -7.5 | 1.1 | ? | -10.8
CC(=O)Nc1cccc(NC(=O)CCNC(=O)c2ccc(Cl)cc2)c1 | -16.2% | 6.8% | -1.2 | 0.4 | -0.4% | 11.3
CCC(=O)Nc1nc(C)c(-c2csc(Nc3cccc(O)c3)n2)s1 | -8.9% | ? | 9.4 | 1.7 | ? | 12.8
CCCCOC(=O)Nc1ccc(S(=O)(=O)Nn2cnnc2)cc1 | 22.3% | 4.4% | -0.2 | 0.3 | -0.1% | 5.9
O=C(NCCc1ccccn1)C1CC(=O)N(Cc2ccccc2Cl)C1 (stereo not drawn) | 23.3% | 11.3% | -1.9 | -0.1 | -1.1% | -6.1
COc1ccc(C2Nc3ccccc3C(=O)N2Cc2ccccc2)cc1CN1CCOCC1 (stereo not drawn) | 9.1% | -9.6% | -1.8 | 0.1 | . | 16.6
CC1(C(=O)N/N=C/c2cc3c(cc2Br)OCO3)CC1(Br)Br (stereo not drawn) | -9.7% | -19.1% | . | 3.2 | -10.2% | 40.3
CCS(=O)(=O)c1ccc2oc(Nc3cc(Cl)ccc3OC)nc2c1 | -4.0%[15.4 µM] | 3.3% | 0.1 | -0.7 | . | 2.3
O=C(O)c1cc(-c2ccccc2)nn1CC1CC(c2cccc([N+](=O)[O-])c2)=NO1 (stereo not drawn) | . | 6.1% | . | -0.7 | -0.6% | 19.8
Cc1cc(NC(=O)COc2ccc([N+](=O)[O-])cc2)no1 | 6.5% | -1.2% | . | 0.6 | -2.0% | 24.6
COc1ccc(C2Nc3ccccc3C(=O)N2c2ccc(Cl)cc2)cc1Cn1cc([N+](=O)[O-])cn1 (stereo not drawn) | 5.9% | -12.4% | -4.2 | 0.8 | 0.5% | -15.9
C/C(Cc1ccccc1)=N\NC(=O)CNC(=O)c1ccc(Cl)cc1 | -0.7% | 1.4% | 1.5 | 0.4 | . | -1.4
O=C(CN1C(=O)c2ccccc2S1(=O)=O)NCCSCc1c(F)cccc1Cl | -16.7%[15.4 µM] | -10.1% | -1.9 | 0.8 | . | -14.5
Cc1cc(C)cc(NC(=O)COc2cccc3c(=O)n(C)ccc23)c1 | . | . | . | 0.9 | -17.9% | 15.8
O=C(OC(C(=O)NCc1cccs1)c1ccccc1Cl)c1ccco1 (stereo not drawn) | -43.2%[inhibitor] | 1.1% | 2.0 | -0.3 | 0.3% | -3.7
COc1ccccc1NC(=S)NC(=O)/C=C/c1cccs1 | -7.5%[15.4 µM] | -23.9% | -2.2 | 0.1 | . | -16.2
Cc1cc(C)cc(NC(=O)N2CCC(CN3CCc4ccccc4C3)CC2)c1 | . | . | . | 2.6 | 2.1% | 4.8
CC1(C)CC(NC(=O)c2ccccc2C(=O)NC2CC(C)(C)NC(C)(C)C2)CC(C)(C)N1 | ? | 14.9% | -3.3 | 5.8 | -0.4% | 37.7
O=C(Nc1ccccc1C(=O)Nc1ccc(Cl)cc1)c1cccnc1 | -13.3% | -10.4% | -1.0 | . | -1.3% | .
COc1cccc(CN2CCC(C)(Oc3cccc(Cl)c3)C2)c1OC (stereo not drawn) | . | . | . | -0.4 | -1.4% | -6.2
Cc1cc(C)c2nc(SC(C)C#N)cc(C)c2c1 (stereo not drawn) | -30.0%[inhibitor] | -15.9% | -1.4 | -0.1 | -1.7% | 3.6
Cc1ccc(CN(Cc2ccco2)C(=O)COc2c(C)cc(C)cc2C)cc1 | . | . | . | 3.4 | -1.5% | 57.8
(next part)
SMILES | gsp ag | gsp antag | Menin MLL FP FL | TRPML1 ag | ClpP mod | TRPML1 blocker
CN(C)CCNC(=O)Cn1nc(C(F)F)cc1C1CC1 | 12.4% | 7.8% | -8.6 | -0.3 | -4.0% | -11.1
COc1ccccc1NC(=S)NNC(=O)c1ccccc1Br | -5.2%[15.4 µM] | -18.7% | -0.3 | -0.2 | . | 9.8
Cc1cc(=O)oc2cc(OC(C)C(=O)Nc3nccs3)ccc12 (stereo not drawn) | -0.5% | -10.7% | -4.1 | -0.4 | ? | -2.5
C[C@H]1CN([C@@H](C)CO)C(=O)CCCn2nncc2CO[C@@H]1CN(C)S(=O)(=O)c1ccc2ccccc2c1 | -45.2% | . | . | 0.1 | -1.0% | -5.1
Cc1ccc(CSCCC(=O)N2CCN(c3ccc(F)cc3)CC2)cc1 | . | . | . | -0.2 | -3.1% | -2.2
O=C(Oc1ccccc1Cl)c1ccccc1P(=O)(O)O | 12.5% | 6.2% | -0.9 | 0.8 | -1.2% | 36.5
CS(=O)(=O)Nc1ccc(C(=O)N2CCc3ccccc3C2)cc1 | -8.7%[15.4 µM] | -2.6% | -1.5 | -1.1 | . | 2.2
CSc1cccc(CNC(=O)CC2C(=O)NCCN2CC(C)(C)C)c1 (stereo not drawn) | 19.6% | 4.7% | -2.6 | 0.0 | . | 21.9
COCCNC(=O)CSc1nnc(NC(=O)Nc2ccc(C)cc2)s1 | . | . | . | -0.2 | 0.0% | 8.7
COC(=O)n1c(=O)oc2cc(S(=O)(=O)N3CCOCC3)ccc21 | -24.2% | 2.3% | -1.8 | -0.3 | 2.4% | 10.8
Cc1ccc(Nc2c3c(nc4nc(-c5cccs5)nn24)CCCC3)cc1F | . | . | . | 1.8 | -4.8% | 21.4
Cc1ccccc1NC(=O)COC(=O)COc1ccc2c(c1)CCC2 | -6.7% | -4.6% | . | 1.4 | -1.3% | -25.6
O=C(CNS(=O)(=O)c1ccccc1)NCC(=O)OCc1ccccc1F | 6.4% | -2.9% | 3.3 | 0.9 | 0.6% | -3.5
CC(=O)c1ccc(OCC(O)CN2CCc3ccccc3C2)cc1 (stereo not drawn) | -22.0% | -0.7% | 0.4 | 0.2 | . | -3.5
O=C(Nc1cc(SCC(O)CO)cc([N+](=O)[O-])c1)c1ccc(-n2cnnn2)cc1 (stereo not drawn) | -6.5%[15.4 µM] | . | -5.4 | 0.1 | . | 2.3
Cc1ccc(-c2nnc(SCC(=O)NC3CCCC3)n2N)cc1 | 8.3%[15.4 µM] | -3.6% | . | -0.5 | 0.3% | 5.6

Screening data deposited in PubChem by National Center for Advancing Translational Sciences (NCATS).
